LT uptake inh – qHTS Assay for Anthrax Lethal Toxin Internalization | Cells, anthrax lethal toxin internalization, FRET ratio (460/530) | 70,000 tested, 0.67% active | Potency, µM (doses to about 40 µM), without a hit: at the highest dose activity change, negative = inhibition, most hits filed as inhibitors; active = well fitted falling ratio curve with the 530 nm signal flat; inconclusive = other ratio curves, or a change in one channel alone; inactive = flat curves in the ratio and both channels; the % refers to the ratio; further: on the % scale 0 is the no-effect control and ±100 the full control effect; nearly all actives have a fitted effect of over 50% in size; tested in ME-180 cells; beta-lactamase reporter
SmPrx2 inh – Schistosoma Mansoni Peroxiredoxins (Prx2) | S. mansoni Prx2 activity coupled to TGR/GSH (TGR is thioredoxin glutathione reductase), NADPH fluorescence loss, qHTS; some inactives read as strong as hits | Schistosoma mansoni peroxiredoxin 2 (Prx2) | 65,000 tested, 0.07% active | Potency, µM | AID 448, 2006; active means full or partial inhibition curve with a strong effect at the top dose; inconclusive means weaker partial or single-point curve; inactive means no accepted curve; further: series up to 57 µM; many of its hits are not listed in these tables
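Purified S. mansoni TGR and Prx2 in pH 7.4 phosphate buffer with EDTA and Tween-20 were preincubated with compounds for 15 min. Further NADPH/GSH was added, then a 2.5 mM H2O2 aliquot initiated turnover, followed kinetically by NADPH fluorescence.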
* marks the source's active call; other numbers are inactive results; ? = inconclusive; . = not tested or not shown; & = joins results of further samples; [ ] = remark or other dose. Potency means the concentration at half of the fitted maximal effect. The list is partial, so the mix of outcomes need not match the whole.

Preview:
SMILES | LT uptake inh | SmPrx2 inh
COc1ccccc1N(C)S(=O)(=O)c1ccc(C(=O)OCC(=O)NCc2ccco2)cc1 | 1% | >57
O=c1c2ccccc2sc2nc(C3CCCCC3)n(Cc3ccco3)c(=O)c12 | -21% | >57
CC(C)(C)c1cc(CN(CCO)CCO)cc(C(C)(C)C)c1O | 15% | >57
CCOC(=O)N1CCN(Cc2nc3c(c(=O)[nH]c(=O)n3C)n2Cc2ccccc2C)CC1 | ? | >57
COc1ccc(OC)c(Nc2cc(C)nc3ccccc23)c1 | -12% | >57
C[N+]12CCC(CC1)C(C#N)(N1CCOCC1)C2 (stereo not given) | -3% | >57
O=S(=O)(c1ccc(S(=O)(=O)n2cnc3ccccc32)cc1)N1CCCCCC1 | -2% | >57

Results, from the start:
SMILES | LT uptake inh | SmPrx2 inh
COc1ccccc1N(C)S(=O)(=O)c1ccc(C(=O)OCC(=O)NCc2ccco2)cc1 | 1% | >57
O=c1c2ccccc2sc2nc(C3CCCCC3)n(Cc3ccco3)c(=O)c12 | -21% | >57
CC(C)(C)c1cc(CN(CCO)CCO)cc(C(C)(C)C)c1O | 15% | >57
CCOC(=O)N1CCN(Cc2nc3c(c(=O)[nH]c(=O)n3C)n2Cc2ccccc2C)CC1 | ? | >57
COc1ccc(OC)c(Nc2cc(C)nc3ccccc23)c1 | -12% | >57
C[N+]12CCC(CC1)C(C#N)(N1CCOCC1)C2 (stereo not given) | -3% | >57
O=S(=O)(c1ccc(S(=O)(=O)n2cnc3ccccc32)cc1)N1CCCCCC1 | -2% | >57
CCCc1[nH]nc2c1C(c1ccc(OC)cc1OC)C(C#N)=C(N)O2 (stereo not given) | 2% | >57
CCCCCCC(C)(C)c1ccc([C@@H]2C[C@H](O)CC[C@H]2CCCO)c(O)c1 | ? | >57
C(=N\c1nc2ccccc2n1CCN1CCOCC1)/c1cccs1 | . | >57
CCCN1Cc2cccc(C(=O)Nc3ccc(N4CCN(CC)CC4)cc3)c2C1=O | -17% | >57
Cc1cc(=O)n2[nH]c(-c3ccc(F)cc3)cc2n1 | -4% | >57
CC1(C)C(C#N)=C(N)OC2=C1C(=O)CCC2 | -18% | >57
CCOC(=O)c1nnn(-c2nonc2N)c1CNc1ccccc1 | -7% | >57
O=C(c1csnn1)N1CCC2(CCCN(Cc3cc(C(F)(F)F)cc(C(F)(F)F)c3)C2)CC1 | 19% | >57
Cc1cc(C)nc(Nc2n[nH]c(COc3ccc(Cl)cc3)n2)n1 | 3% | >57
N#Cc1cccc(NC(=O)N2CCC3(CC2)CCN(C(=O)c2cnccn2)CC3)c1 | 3% | >57
COc1ccc(C2Nc3ccccc3C(=O)N2Cc2ccco2)cc1COc1ccc(NC(C)=O)cc1 (stereo not given) | ? | >57
O=C(O)CCSc1nnc(-c2ccncc2)n1-c1ccccc1 | 8% | >57
COc1ccc(Oc2ncc3ncc(=O)n(Cc4cccc(OC)c4)c3n2)cc1 | ? | >57
O=C(Nc1nc(-c2ccc(Cl)s2)cs1)c1cccs1 | ? | >57
C#CCCCO/N=C1/C[C@@H](O)[C@@H](O)[C@@H]2[C@@H]3C(=O)N(C(C)(C)C)C(=O)[C@H]3CC[C@H]12 | -3%[8 µM] | .
Nc1nc(SCC(=O)N2CCc3ccccc3C2)[nH]c(=O)c1-c1ccccc1 | -13% | >57
CCOC(=O)N1CCC(N2CC34C=CC(O3)C(C(=O)Nc3ccc(C(C)C)cc3)C4C2=O)CC1 (stereo not given) | -17% | >57
CCC1(C)OC(=O)N2CCc3c(C)[nH]c4c(C)ccc(c34)C21C (stereo not given) | -11% | >57
Cc1cc(S(=O)(=O)NCc2ccco2)c(C)s1 | -9% | >57
CCOC(=O)N1CCN(C(=O)CCCn2c(=S)[nH]c3ccccc3c2=O)CC1 | 3% | >57
O=C(CN(Cc1ccc2c(c1)OCO2)C(=O)CNS(=O)(=O)c1ccccc1)NCC1CCCO1 (stereo not given) | 10% | >57
NC(=O)c1sc(=S)n(-c2ccc(Br)cc2)c1N | -29% | .
O=C(Oc1cccnc1)c1ccc(Cl)cc1 | -10% | >57

Single records (already shown). Values in the order: LT uptake inh | SmPrx2 inh
Record of CCOC(=O)N1CCC(N2CC34C=CC(O3)C(C(=O)Nc3ccc(C(C)C)cc3)C4C2=O)CC1 (stereo not given) = -17% | >57
Record of Cc1cc(S(=O)(=O)NCc2ccco2)c(C)s1 = -9% | >57
Record of CCOC(=O)N1CCN(C(=O)CCCn2c(=S)[nH]c3ccccc3c2=O)CC1 = 3% | >57
Record of O=C(CN(Cc1ccc2c(c1)OCO2)C(=O)CNS(=O)(=O)c1ccccc1)NCC1CCCO1 (stereo not given) = 10% | >57

Next entries:
SMILES | LT uptake inh | SmPrx2 inh
CCOc1cc(S(=O)(=O)NCCc2ccccc2C)c(OCC)cc1-n1cnnn1 | 3% | >57
Clc1ccc(Br)cc1-c1nc(-c2cccnc2)no1 | -6% | >57
CCOc1ccc(CCNC(=O)CN(C)S(=O)(=O)c2ccc3c(c2)CCC(=O)N3)cc1OCC | ? | >57
CO[C@H]1COC(=O)C/C=C\[C@@H](C)COC(=O)[C@@H](CCSC)NC(=O)C/C=C\[C@@H]1C | 0%&-2%[8 µM] | .
CCN(CC)C(=O)C1CCCN(c2ncnc3c2cnn3-c2cccc(C)c2)C1 (stereo not given) | -3% | >57
CCc1nnc(NC(=O)c2ccc(COc3ccc(C)cc3)o2)s1 | -9% | >57
CCOc1ccc2[nH]c(=O)c(C(c3nnnn3Cc3ccco3)N3CCC(C)CC3)cc2c1 (stereo not given) | -28% | >57
Cc1cccc(Cn2c(Sc3nc(C)cs3)nc3c2c(=O)[nH]c(=O)n3C)c1 | -10% | >57
Cc1cc(Nc2nc3ccccc3[nH]c2=O)n(-c2ccccc2)n1 | -12% | >57
CCN(CC)c1ccc(C2C3CCCCC3(O)CCN2CC(=O)N2CCCCC2)cc1 (stereo not given) | ? | >57
CCOc1ccccc1OCCCC(=O)N1CCN(S(=O)(=O)c2ccc(C)cc2)CC1 | 2% | >57
Cc1ccc(NC(=O)CS(=O)CC(=O)NC(C)CCc2ccco2)cc1Cl (stereo not given) | 10% | >57
Cn1c(=O)c2c(nc(NCCNc3nc4c(c(=O)n(C)c(=O)n4C)n3C)n2C)n(C)c1=O | -11%[8 µM] | >57
COc1ccc(OC)c(-c2cc(C(=O)N3CCCc4ccccc43)no2)c1 | -21% | >57
COC(=O)c1[nH]c2cc(C)ccc2c1NC(=O)CN1CCN(c2ccccc2OC)CC1 | ? | >57
CCn1c(SCC(=O)Nc2nonc2C)nnc1-c1ccoc1C | -6% | >57
CC1(C)SC2c3ccccc3C(=O)N2[C@@H]1C(=O)NCCCN1CCOCC1 (stereo not given in full) | 9% | >57
Oc1ccccc1O | -8%&2% | >57
CC1=NC(Nc2nc(C)c3ccccc3n2)=NC(C)(C)C1 | ? | >57
CC(C)C(NC(=O)C1CCCCC1)C(=O)Nc1ccc2c(c1)OCCO2 (stereo not given) | 11% | >57
CC1=C(C(=O)OCc2ccccc2)C(c2cccnc2)n2ncnc2N1 (stereo not given) | 2% | >57
COC(=O)NC(CC(C)=O)c1cccc(C)c1 (stereo not given) | 8%[8 µM] | .
Cn1c(=O)c2c(nc(SCC(=O)Nc3ccccc3N3CCCCC3)n2C)n(C)c1=O | -2% | >57
O=S(=O)(c1ccc(Cl)cc1Br)N1CCCCC1 | . | >57
O=C(CN1CCCC1)N1c2ccccc2Sc2ccccc21 | -15% | >57
CCCc1cc(=O)oc2cc(C)cc(OCc3nn[nH]n3)c12 | -4% | >57
Cc1ccc(OCCC(=O)Nc2c(C)n(C)n(-c3ccccc3)c2=O)cc1 | -2% | >57
CCOC(=O)CCC(=O)NCc1ccc2[nH]c(C)cc2c1 | 0% | >57
O=S(=O)(Nc1nnc(-c2ccccc2)s1)c1ccc(Cl)cc1 | -10% | .
CCOc1ccc(-n2c(Cc3cc(=O)[nH]c(=O)[nH]3)nnc2SC(C)C)cc1 | ? | >57
Cc1c(Cc2ccccc2)c(=O)oc2c(C)c(OCc3nn[nH]n3)ccc12 | ? | >57
O=C(CSc1n[nH]c(-c2ccccc2Br)n1)NC(=O)NCc1ccco1 | 4% | >57
CC(CN(C)Cc1ccccc1)OC(=O)C1COc2ccccc2O1 (stereo not given) | 5% | >57
COc1cc(C(=O)Nc2cnc(NC(=O)C(C)C)cc2C)cc(OC)c1OC | -9% | >57
CC(N)C(=O)c1ccco1 (stereo not given) | 5% | >57
CC(C)c1ccc(NC(=O)CCNS(=O)(=O)c2cccc3nonc23)cc1 | -11% | >57
Cc1nnc(SCC(=O)NCc2ccc3c(c2)OCO3)s1 | -3% | >57
Cc1nc2ccc(NC3=NCCCCC3)cc2s1 | -18% | >57
CC1(C)[C@@H](OC(=O)CCC(=O)O)CC[C@@]2(C)[C@H]1CC[C@@]1(C)[C@H]2C(=O)C=C2[C@H]3C[C@](C)(C(=O)O)CC[C@]3(C)CC[C@@]21C | 9%[3.58 µM] | >57
CC1(C)Oc2ccc(C(=O)N3CCc4ccccc43)cc2N(CC(=O)N2CCCC2)C1=O | ? | >57
CCN(CC)S(=O)(=O)c1cccc(-c2nnc(SC(C)C#N)n2Cc2ccccc2)c1 (stereo not given) | 9% | >57
Cc1ccc(C2C(=O)N(C3CCC(C)CC3)CC(=O)N2C2CC2)cc1 (stereo not given) | 13% | >57
COCc1nc(-c2ccc(-c3ccc(OC)cc3)nc2OC)no1 | -1% | >57
C(=N\n1cnnc1)/c1ccc(N2CCOCC2)s1 | 20% | >57
O=C(CN1C(=O)c2ccccc2C1=O)N1CCN(c2ccccc2)CC1 | -12% | >57
COc1nc(C)ccc1-c1noc(-c2ccncc2)n1 | -6% | >57
O=C(CN1CCc2ccccc2C1)Nc1ccccc1N1CCCCCC1 | ? | >57
CN(C1CCCCC1)S(=O)(=O)c1ccc2c(c1)c(=O)c(C(=O)NCCN1CCCC1)cn2C | 10µM* | >57
N=c1sc2ccccc2n1-c1ccccc1 | ? | >57
CCS(=O)(=O)CCSc1nc2ccccc2o1 | 14% | >57
(next part)
SMILES | LT uptake inh | SmPrx2 inh
COCCn1c(SCC(=O)Nc2nnc(C)s2)nnc1-c1c[nH]c2ccccc12 | -2% | >57
COc1cc2c(=O)n(-c3ccc(C)cc3)c(=O)n(CC(=O)c3ccc4c(c3)OCO4)c2cc1OC | 5% | >57
COc1ccc(C)cc1NC(=O)C1CC(=O)N(Cc2ccco2)C1 (stereo not given) | -19% | >57
O=C(Nc1nc(-c2ccncc2)cs1)c1ccco1 | -9% | >57
CCOc1ccc(C(=O)Nc2cc(C)on2)cc1 | -4% | .
O=C(Oc1ccc2ccccc2c1)c1ccco1 | -12% | >57
O=C(Nc1nc2ccc(S(=O)(=O)N3CCCCC3)cc2s1)c1ccncc1 | 6% | >57
O=C(CSc1ccc2c(c1)OCCO2)NCc1ccco1 | ? | >57
CCOC(=O)c1c(C)[nH]c(C(=O)OCC(=O)N2CCc3ccccc32)c1C | -10% | >57
CCOC(=O)C(C)Sc1nc(N)c(NC(=O)c2ccc(OC)c(OC)c2)c(=O)[nH]1 (stereo not given) | 6% | >57
Cc1onc(COc2ccccc2O)c1Br | 4% | >57
O=C1CCC(c2ccccc2)=NN1c1nc2ccccc2s1 | ? | >57
COc1ccc2c(c1)SC1=NCCS(=O)(=O)N12 | 17% | >57
CO/N=C(\C(=O)N[C@@H]1C(=O)N2C(C(=O)O)=C(CSc3nc(=O)c(O)nn3C)CS[C@@H]12)c1csc(N)n1 | 1% | >57
c1ccc(N=Nc2ccccc2)cc1 | -7% | .
C#CCSc1nnc(-c2c[nH]c3ccccc23)n1C | -1% | >57
NC1(C(=O)O)C[C@@H](C(=O)O)[C@H](C(=O)O)C1 | ? | >57&>57
CC(=O)OCC1OC(C#CCC2CCCCC2)C=CC1OC(C)=O (stereo not given) | ? | .
N#CCCN1CCN(S(=O)(=O)c2ccc(S(=O)(=O)NC3CCCC3)cc2)CC1 | 1% | >57
Cc1c(N2C(=O)c3ccccc3C2=O)c(=O)n(-c2ccccc2)n1C | -1% | >57
CCOc1ccc2nc(N3CCCCCC3)sc2c1 | 12% | >57
Cc1ccc(C)c(/C(O)=C2/C(=O)C(=O)N(CCN3CCOCC3)C2c2ccco2)c1 (stereo not given) | -15% | >57
CN(C)C(=O)c1ccc(NC(=O)c2cccnc2)cc1 | 1% | >57
O=C(CN1CCN(c2ncccn2)CC1)Nc1ccccc1-n1cccc1 | -3% | >57
CCOc1cc(C(=O)Nc2cc(C)ccn2)cc(OCC)c1OCC | 2% | >57
O=c1n(Cc2ccccc2)c2cc(Cl)cnc2n1Cc1ccccc1 | ? | >57
CC(C)N(CCNC(=O)c1cn(C)c2ccc(S(=O)(=O)N(C)C)cc2c1=O)Cc1ccccc1 | 7% | >57
CCOc1ccc(-c2nnc(-c3ccco3)o2)cc1OCC | -2% | >57
CCN1C(=O)C2C(c3ccc(O)c(OC)c3)NC(C)(C(=O)OC)C2C1=O (stereo not given) | 7% | >57
CCC(C)(C)NC(=O)C(c1ccccc1F)N(Cc1ccco1)C(=O)Cn1nnc2ccccc21 (stereo not given) | ? | >57
COc1ccccc1-n1c2c(cc(C(=O)N3CCC(C)CC3)c1=O)C(=O)CC(C)(C)C2 | -1% | >57

Screening results deposited in PubChem by National Center for Advancing Translational Sciences (NCATS).
